Compound activity from PubChem.
A1 inh: caspase 3/7 activation in MEF A1-2A-BIM cells, primary screen, A1 inhibitor project, cell-based, luminescence, HTS; 330,000 tested, 0.066% active; Caspase-Glo 3/7 luminescence, 3 h; percent of clofoctol response, vehicle zero; caspase activation, % (test concentration not listed);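 active means over half of replicate activation scores above 10%, or exactly half above 10 with the replicate mean above 10; inconclusive means replicate mean below 10 yet half the replicates above 10; inactive means over half of replicates below 10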;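 further: wells of about 30 µL received 50 nL stock; many hits fall short of the cut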
Beta cell apopt: inhibitors of cytokine-induced beta cell apoptosis, primary screen, luminescence; 300,000 tested, 0.8% active; protection from apoptosis, % (concentration not given with the values); INS-1E cytokine-induced death, ATP luminescence, 48 h; percent of positive-control rescue, neutral wells zero;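 active means all replicates at 75% or more, or half of them and the mean; inconclusive means half reach 75% but not the mean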;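 further: 0% = cytokine-treated negative control wells and 100% = positive control rescue; higher means more ATP so stronger rescue from cytokine killing; wells of about 40 µL received 100 nL stock; the first replicate is given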
T cruzi repl: inhibitors of intracellular T. cruzi growth, primary screen, luminescence, NIH3T3 host cells | T. cruzi beta-gal in NIH3T3, 90 h | inhibition, % (test concentration not listed) | 300,000 tested, 1.4% active;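 active means mean inhibition across valid replicates above about 55%, limit read from the data; inconclusive means mean below that limit but half or more replicates reach it; inactive means mean below it, under half of replicates reach it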;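 further: signal also drops with host cell toxicity which is not excluded here; 0% = plate median of DMSO wells and 100% = zero luminescence signal; higher percent means less beta-gal luminescence so fewer parasites; stock transfer was 50 nL into about 50 µL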
RanGTP-Impb inh: inhibitors of RanGTP-importin-beta interaction, primary screen, biochemical, FRET, CFP-Ran, YFP-importin-beta, homogeneous; Ran GTPase (GTP-bound) - importin-beta complex; cell-free CFP-Ran/YFP-importin-beta FRET ratio; inhibition, % (concentration not given with the values); 300,000 tested, 1.1% active;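 active means most replicates above 15%; inconclusive means exactly half above 15%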;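 further: 0% = DMSO wells and 100% = Ran loaded with GDP instead of GTP; wells of about 40 µL received 100 nL stock; the first replicate is given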
Beta2AR agonist: beta2AR agonists driving receptor internalization, primary screen, cell-based, FAP fluorogen, flow cytometry; Beta-2 adrenergic receptor (Homo sapiens), P07550; Am2.2-beta2AR cells; reference of the scale not given here; response, % (concentration not given with the values); 340,000 tested, 0.43% active;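 active means response above a set limit, near 3 SD of response in nonfluorescent compounds, cut at about 42% in these data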;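 further: stock transfer was 100 nL into about 11 µL; a reference agonist was the positive control; negative values mostly stem from fluorescent compounds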
UCH37 DUB inh: inhibitors of human UCH37 deubiquitinase, primary screen, biochemical, Ub-AMC cleavage, fluorescence | purified proteasome/UCH37 | inhibition, % (concentration not given with the values) | 330,000 tested, 0.33% active | AID 588478, 2011;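 active means mean of two replicates above 20%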;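 further: 0% = compound-free wells with enzyme and 100% = wells lacking proteasome; stock transfer was 100 nL into about 20 µL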
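assay system = human UCH37 enzyme supplied as purified proteasome complex | amount = proteasome at 0.15 nM in the dispensed enzyme solution | schedule = 30 min compound-proteasome preincubation then 25 min substrate reaction, room temperature | measured by = fluorescence, ex 355 nm, em 460 nm | benchmarks = no-proteasome wells (full inhibition) and compound-free wells (no inhibition)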
Calb FLC: C. albicans growth inhibition with fluconazole, primary screen, CaCi-2 strain, Alamar Blue fluorescence; C. albicans CaCi-2 (fluconazole-resistant clinical isolate) + fluconazole, 48 h; growth inhibition, % (test concentration not listed); 300,000 tested, 0.57% active;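 active means most replicates above 75%; inconclusive means exactly half above 75%; inactive means most below 75%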;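 further: all wells also contain fluconazole at 8 µg/ml as a sub-toxic cotreatment; 0% = median of DMSO wells and 100% = median of geldanamycin control wells; wells of about 8 µL received 7.5 nL stock; the first replicate is given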
LANA-H2A inh: blockers of LANA interaction with H2A/H2B – biochemical, FP readout, HTS, primary screen. Protein LANA1 (Human herpesvirus 8 type P (isolate GK18)), Q9QR71. cell-free LANA-H2A/H2B peptide, fluorescence polarization. inhibition, % (test concentration not listed). 320,000 tested, 0.6% active; in the data active means inhibition mostly above about 10%, no sharp cut-off; inactive means mostly below about 6.7%;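 further: stock transfer was 7.5 nL into about 10 µL; 0% = median of vehicle wells and 100% = median of positive control wells; one replicate is shown; the record names a cut of 25% in any replicate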
Target sequence (Q9QR71 whole entry, looked up): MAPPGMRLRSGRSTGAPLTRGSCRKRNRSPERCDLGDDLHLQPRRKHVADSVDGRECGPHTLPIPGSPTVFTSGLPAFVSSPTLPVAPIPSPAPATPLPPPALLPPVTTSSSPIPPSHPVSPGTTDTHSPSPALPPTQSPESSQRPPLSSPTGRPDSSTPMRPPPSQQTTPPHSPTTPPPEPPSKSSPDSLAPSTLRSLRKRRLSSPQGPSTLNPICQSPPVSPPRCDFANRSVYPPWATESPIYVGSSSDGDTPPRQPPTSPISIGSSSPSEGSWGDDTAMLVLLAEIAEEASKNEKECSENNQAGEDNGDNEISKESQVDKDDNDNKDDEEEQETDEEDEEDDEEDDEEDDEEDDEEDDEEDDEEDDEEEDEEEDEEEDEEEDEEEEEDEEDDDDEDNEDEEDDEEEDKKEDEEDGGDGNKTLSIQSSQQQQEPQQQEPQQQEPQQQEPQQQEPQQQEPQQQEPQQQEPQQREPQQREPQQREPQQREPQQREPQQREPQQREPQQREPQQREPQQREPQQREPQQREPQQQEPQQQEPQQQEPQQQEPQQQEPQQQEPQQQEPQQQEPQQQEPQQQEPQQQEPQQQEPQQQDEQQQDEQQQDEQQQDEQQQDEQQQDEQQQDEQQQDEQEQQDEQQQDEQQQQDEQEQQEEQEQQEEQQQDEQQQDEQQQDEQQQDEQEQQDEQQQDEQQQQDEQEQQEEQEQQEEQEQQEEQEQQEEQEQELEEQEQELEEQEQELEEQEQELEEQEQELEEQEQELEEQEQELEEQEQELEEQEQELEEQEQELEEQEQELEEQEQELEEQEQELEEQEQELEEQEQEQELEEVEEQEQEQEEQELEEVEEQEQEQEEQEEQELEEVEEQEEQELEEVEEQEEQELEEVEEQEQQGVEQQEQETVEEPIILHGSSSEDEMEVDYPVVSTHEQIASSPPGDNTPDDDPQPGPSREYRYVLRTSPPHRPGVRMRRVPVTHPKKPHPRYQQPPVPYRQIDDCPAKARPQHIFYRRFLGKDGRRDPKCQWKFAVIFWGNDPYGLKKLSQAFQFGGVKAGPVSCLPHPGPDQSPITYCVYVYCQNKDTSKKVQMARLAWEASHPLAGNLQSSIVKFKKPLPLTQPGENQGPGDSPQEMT
Active calls of the source: *; ? = inconclusive; / = no result given.

Values in the order – A1 inh	UCH37 DUB inh	Beta2AR agonist	T cruzi repl	RanGTP-Impb inh	Beta cell apopt	LANA-H2A inh	Calb FLC
> COc1ccccc1NC(=O)c1cccnc1
→ 1.0	-0.3	7	5	?	-3	-1.7	-4
> Cc1nn(C(C)C(=O)N2CCc3ccccc3C2)c(=O)c2cc3occc3n12 (stereo not given)
→ 0.0	3.8	-4	-6	-0.5	-22	-1.0	-9
> Cc1ccc(SCC(=O)Nc2ccc(S(=O)(=O)Nc3nccs3)cc2)cc1
→ -0.6	3.2	8	-2	5.5	/	0.1	0
> O=C(COc1ccc(Br)cc1)Nc1ccc(N2CCOCC2)cc1N1CCOCC1
→ -0.7	1.2	6	/	/	4	0.8	/
> CCN1CC(CN(C)Cc2nc(COc3ccccc3)no2)CC1=O (stereo not given)
→ 0.9	/	9	-20	/	1	0.7	-5
> C=C[C@@H]1c2c(F)cccc2N(S(=O)(=O)c2ccc(C)cc2)[C@H](c2ccc(OC(C)=O)cc2)C1(C#N)C#N
→ -0.3	2.3	7	/	/	-1	3.5	/
> Cc1ccccc1C(=O)Nc1ccc(Br)c(C)n1
→ -5.0	2.5	1	23	0.3	-2	-1.0	-12
> COc1ccc([C@H]2CC(=O)C=C(c3ccc(Cl)c(F)c3)C2)cc1
→ -1.0	3.8	-6	/	/	1	-1.7	/
> Cc1cc2c(N=O)c(NO)ccc2[nH]1
→ 0.5	6.9	7	31	0.0	69	-5.2	30
> CCCCCOC(=O)C1C(c2ccccc2)C(C(=O)O)C1c1ccccc1 (stereo not given)
→ -0.5	1.9	-56	-3	1.9	-5	0.5	49
> CCOC(=O)/C(C#N)=C/Nc1ccccc1NS(=O)(=O)c1cccc(C(C)=O)c1
→ -0.3	26*	14	1	3.0	4	-0.1	2
> COCC(C)NC(=O)CCS(=O)(=O)c1nc(-c2ccc(OC)cc2)cc(C(F)(F)F)n1 (stereo not given)
→ -0.1	-4.6	53*	-23	?	-27	-1.8	-1
> CCCc1nnc(SCC(=O)N2CCCC(C)C2)n1CCOC (stereo not given)
→ 0.3	0.3	-1	-11	-1.4	-6	-4.4	13
> Cc1nc(N2CCN(Cc3ccc(Cl)cc3)CC2)c2oc3ccccc3c2n1
→ 0.1	1.9	6	1	-0.1	-1	1.2	0
> Cc1cccc(C(=O)NC2CCN(S(=O)(=O)c3ccccc3F)CC2)c1
→ 0.0	3.4	2	-7	4.5	2	-1.8	20
> Cc1ccc(C(C(=O)NC2CCCCC2)N(Cc2ccccc2)C(=O)Cc2c[nH]c3ccccc23)o1 (stereo not given)
→ 1.2	4.2	0	42	4.7	14	3.0	17
> CC(C)N(CCc1ccncc1)C(=O)Nc1ccc(Cl)c(Cl)c1
→ 1.0	5.9	-3	26	1.5	/	3.4	9
> Cn1nc(C(=O)NNC(=O)c2ccc(Cl)cc2)ccc1=O
→ -0.6	0.3	2	-3	0.6	1	-1.2	-3
> COc1ccc(OC)c(NC(=O)c2ccc3c(c2)OCO3)c1
→ -0.3	2.4	-8	-13	2.3	1	-15	4
> CCN(CC(=O)Nc1ccc(OC)c(OC)c1)CC(=O)Nc1ccccc1C(F)(F)F
→ 0.4	-2.0	-4	-6	0.1	0	5.4	12
> CC(=O)Nc1ccc(NC(=O)Cn2ccc([N+](=O)[O-])n2)cc1
→ -1.6	3.5	-2	0	-1.3	-4	-0.6	6
> Cc1ccc(N2CCN(CCc3nc4cc(NC(=O)c5ccco5)ccc4n3C)CC2)cc1
→ 0.2	4.1	-11	-8	2.2	4	-0.4	-33
> CCC(CO)NCc1ccc(Br)cc1 (stereo not given)
→ 0.2	1.2	-1	-17	-3.4	0	3.5	-14
> CC(OC(=O)CN(C)S(=O)(=O)c1ccc(Cl)cc1)C(=O)Nc1cccc(Cl)c1 (stereo not given)
→ 0.1	4.2	8	-5	3.4	-15	0.6	2
> CCO[C@@H]1OC(C(=O)NC2CC2)=C[C@H](C2CCCCC2)[C@H]1CCCO
→ 0.7	0.7	-9	-24	1.2	/	-0.8	31
> COC(c1ccccc1)c1nnc(CCC(=O)N2CCN(Cc3cccs3)CC2)o1 (stereo not given)
→ 0.8	2.1	-1	-9	-1.4	-1	2.0	-4
> O=C(CN1C(=O)CCC1=O)Nc1nc(-c2ccc(Cl)s2)cs1
→ 0.1	-0.3	-10	-5	-1.3	-1	/	-15
> O=C(Cn1nc(CNc2ccc(Br)cc2)[n+]2c1CCCCC2)c1ccc([N+](=O)[O-])cc1
→ 0.0	4.3	9	27	5.4	-2	-3.1	-32
> Cn1cccc1C1C=C(c2ccc(C(C)(C)C)cc2)Nc2ncnn21 (stereo not given)
→ -0.8	-7.2	4	-12	?	127*	6.1	9
> COc1ccc(C(=O)NCC(=O)OCC(=O)NCc2cccs2)cc1
→ 2.0	1.2	1	-16	0.8	-11	1.8	10
> Cc1cc(C)c(C#N)c(Nc2ccccc2F)n1
→ 1.6	2.9	8	-13	-1.0	-3	-4.9	9
> CCOC(=O)C1(CCOc2ccccc2)CCN(Cc2ccc(O)c(OCC)c2)CC1
→ 0.0	0.6	12	-19	-0.9	11	-6.8	2
> Cc1cc(C(=O)CSc2nnc(Nc3ccccc3F)s2)c(C)n1CC1CCCO1 (stereo not given)
→ /	2.4	-4	16	-4.5	/	/	-4
> COc1ccc(-c2cc(-c3cc(C)ccc3O)[nH]n2)cc1
→ 0.5	4.7	12	-8	1.1	/	-8.9	1
> CCN(CC)c1ccc(C=Nc2ccccc2C)c(O)c1
→ -0.5	5.2	8	-13	-3.1	-6	-0.8	7
> CCOc1ccc(NC(=O)C2CC(=O)N(CCc3ccccc3)C2)cc1OC (stereo not given)
→ 0.0	4.8	27	/	/	-2	4.6	/
> Cc1nc2cc3ccccc3cc2n1C
→ -0.5	-12	-2	-10	-2.7	-8	0.6	2
> Cc1cccc(NC(=S)NCC(c2cccnc2)N(C)C)c1C (stereo not given)
→ 1.0	1.7	-1	-1	-0.9	-9	-3.4	0
> COc1ccc(-c2ccc(OC)c([C@H]3[C@H]4C=CC[C@@H](C)[C@@H]4C(=O)N3Cc3ccccc3)c2)cc1OC
→ -0.6	1.2	11	33	3.2	16	-2.9	1
> CCOC(=O)c1c(C)c(C(=O)NCCc2ccccc2)c(C)n1C
→ -0.4	2.4	-4	3	?	-2	1.6	-16
> COc1ccccc1N(C)S(=O)(=O)c1ccc(C(=O)OCC(=O)Nc2ccc(C(N)=O)cc2)cc1
→ 0.2	-1.7	0	/	/	1	-0.6	/
> CCOC(=O)c1ccc(OCC(=O)c2ccc(O)cc2O)cc1
→ -4.0	-0.6	6	-26	-1.4	-7	-1.3	0
> COc1cccc(CC2(CO)CCCN(Cc3c(C)cc(C)cc3-n3cccn3)C2)c1 (stereo not given)
→ -0.2	7.8	9	6	-3.0	-5	-4.9	-44
> Cc1ccc(C(=O)NCCNC(=O)COc2ccccc2Cl)cn1
→ 0.1	2.5	0	-11	0.0	-3	-0.5	-5
> CC(C)Cn1c(N)c(C(=O)COC(=O)c2cccn2C)c(=O)n(C)c1=O
→ -0.8	1.9	4	/	/	-1	1.0	/
> O=C(N/N=C/c1cn[nH]c1-c1ccc(F)cc1)c1ccncc1
→ 0.9	/	2	-4	-2.5	-4	4.3	3
> CCc1c(C2(O)CCCCC2)[nH]c2ccc(C(=O)OC)cc12
→ 0.5	2.4	-6	11	-0.2	-5	0.2	5
> Nc1ccc(C(=O)OCC(=O)N2CCOCC2)cc1[N+](=O)[O-]
→ -1.2	38*	7	-11	-0.7	-5	0.7	-2
> O=C(CCN1C(=O)c2cccc3cccc(c23)C1=O)N1CCN(Cc2ccc3c(c2)OCO3)CC1
→ 0.9	-2.4	7	18	2.7	4	-4.0	-9
> Cc1ccc(NC(=O)Nc2ccc3c(c2)C(=O)OC3)cc1Cl
→ 1.2	4.8	2	9	?	1	-3.2	-3
> CC(C)c1ccc(S(=O)(=O)N2CCN(C(=O)c3ccncc3)CC2)cc1
→ 0.5	-1.3	-14	/	/	-3	1.7	/
> O=C(CSc1nnc(-c2ccc(F)cc2)o1)N1CCN(C(=O)c2ccco2)CC1
→ 0.0	2.6	-1	2	3.2	/	5.5	-8
> NC(=O)CSc1nc2c(sc(=S)n2-c2ccccc2)c(=O)[nH]1
→ -0.9	11	1	1	-2.1	0	2.1	-6
> CC(C)Oc1cccc(C(=O)NC(=S)Nc2ccccc2N2CCOCC2)c1
→ 0.3	5.0	-16	28	?	1	-0.6	0
> Cn1cnnc1Sc1nc2ccccc2nc1NS(=O)(=O)c1ccccc1
→ 1.0	-19	9	4	10	0	5.9	0
> C=CCNC(=S)N/N=C/c1cccc([N+](=O)[O-])c1
→ 0.3	/	-3	-1	-4.3	1	2.9	-13
> O=C(NCc1n[nH]c(=S)n1-c1cccc(Cl)c1)c1cccs1
→ 0.3	1.5	1	0	3.9	-1	-2.4	-5
> Cc1cc(/C=N/NC(=O)c2cccc(F)c2)c(C)n1-c1ccccc1
→ -2.8	/	-13	-10	-4.3	2	-0.6	-24
> Cc1[nH]c2ccccc2c1C(=O)COC(=O)C1CCC(=O)N1 (stereo not given)
→ 0.9	1.5	-2	-4	-0.2	/	2.5	17
> CC(C)c1ccc(S(=O)(=O)N2CCN(C(=O)c3cc(-c4ccccc4)n[nH]3)CC2)cc1
→ -0.1	6.5	-1	10	-2.0	8	-3.3	2

(next part)
Values in the order – A1 inh	UCH37 DUB inh	Beta2AR agonist	T cruzi repl	RanGTP-Impb inh	Beta cell apopt	LANA-H2A inh	Calb FLC
> O=S(=O)([O-])CCC[n+]1ccc(Oc2ccccc2)cc1
→ 2.2	4.3	-5	-2	-1.4	0	-0.2	6
> CCCN1CCC(N2CCN(c3ccc([N+](=O)[O-])cc3)CC2)CC1
→ 0.7	11	2	26	-7.4	-2	7.6	-5
> O=[N+]([O-])c1cc([N+](=O)[O-])c(Oc2cccc(Cl)c2Cl)cc1NN1CCCCC1
→ -0.4	6.4	6	-3	-0.9	-4	-0.2	-3
> COc1ccccc1Nc1cc(C(=O)NCc2cccnc2)c2ccccc2n1
→ -0.4	2.6	1	-2	1.0	4	6.4	11
> Cc1ccc(NC(=O)c2ccc(NS(=O)(=O)c3cccc4cccnc34)cc2)cc1
→ 0.3	4.6	16	3	1.4	/	-5.5	-1
> CCN(CC)CCNC(=O)c1cn(CCOC)c(=O)c2c1c1ccccc1n2C
→ 0.5	-119	-9	11	-0.9	1	-2.6	-16
> Cc1cc(C)nc(SCC(=O)Nc2ccc3c(c2)OCO3)n1
→ 0.2	3.7	-3	-7	6.2	10	12	11
> CCOC(=O)c1[nH]c2ccccc2c1NC(=O)CN1CCCCC1
→ 0.1	-2.1	6	-10	-3.6	-3	15	-1
> O=C(Cn1nnc2c(cnn2-c2ccc(F)cc2)c1=O)OC1CCCCC1
→ -0.5	2.1	-2	-1	1.0	-5	2.7	-5
> CCCCOc1ccccc1NC(=O)CC1SC(=NCC)N(CC)C1=O (stereo not given)
→ 0.1	-4.1	-9	14	6.1	2	-0.1	10
